Bioassay records as filed in PubChem BioAssay.
NS1 function inh – blocks influenza NS1 protein function; S. cerevisiae slowed by influenza A NS1, growth recovery by OD600; Potency, µM (titrated, usually from 46.1 µM), inactives show top-dose activity, positive = more growth; 0.4% of 270,000 active; active means well fitted rising curve with a large enough effect; inconclusive means small, poorly fitted or top-dose-only effect; inactive means no such curve, though single readings can be large or run the other way; also: nearly all actives have a fitted effect of over 50% in size
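A cell-based growth assay was used: compounds that relieve NS1-induced slow growth of budding yeast raise OD600. Assay medium was yeast nitrogen base with ammonium sulphate and -URA supplement, pH 6.0, with 2% galactose.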
RE007 growth inh – less growth of the S. pombe RE007 Vpr strain; S. pombe RE007 Vpr strain, BacTiter-Glo ATP luminescence, 24 h; control for the full effect not named in the record; Potency, µM (series often up to 92.2 µM), without a hit: at the highest dose activity change, negative = less growth; 0.21% of 360,000 active; active = well fitted falling curve with a large enough effect; inconclusive = small, poorly fitted or top-dose-only effect; inactive = no such curve, though single readings can be large or run the other way;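 also: % is scaled to controls: 0 for no effect and ±100 for the full control effect; nearly all actives have a fitted effect of over 50% in size; the assay follows cell death caused by Vpr and the record does not say whether a fall means rescue or toxicity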
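Fission yeast strain RE007, carrying one chromosomally integrated HIV-1 vpr copy, was seeded at OD 0.01 in PMG+AL medium with 23 nL pinned compound. After 24 h at 30 °C and 99% humidity, viability was read by BacTiter-Glo luminescence.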
SARS PLP yeast – blocks SARS-CoV papain-like protease in a yeast assay; Potency, µM (titrated, usually from 32.9 µM), for inactives: top-dose activity, positive = growth rescue; S. cerevisiae expressing SARS-CoV PLpro, growth rescue; control for the full effect not named in the record; AID 485353; 0.19% of 330,000 active; active means well fitted rising curve with a large enough effect; inconclusive means small, poorly fitted or top-dose-only effect; inactive means no such curve, though single readings can be large or run the other way; also: 0% is about no effect; nearly all actives have a fitted effect of over 55% in size; growth read by luminescence after 48 h
Cruzain inh noDet – blocks cruzain activity in detergent-free assay | purified cruzain, Z-FR-AMC fluorescence, no detergent | Potency, µM, for the others: max response, negative = inhibition, hits mostly inhibitors | AID 1476 | P25779 | 2.3% of 200,000 active;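 also: plate controls were enzyme without inhibitor for no effect and buffer without enzyme for full effect; nearly all actives have a fitted effect of over 40% in size; top concentration of the series not given in the record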
Target sequence (P25779 123-467 limits assumed): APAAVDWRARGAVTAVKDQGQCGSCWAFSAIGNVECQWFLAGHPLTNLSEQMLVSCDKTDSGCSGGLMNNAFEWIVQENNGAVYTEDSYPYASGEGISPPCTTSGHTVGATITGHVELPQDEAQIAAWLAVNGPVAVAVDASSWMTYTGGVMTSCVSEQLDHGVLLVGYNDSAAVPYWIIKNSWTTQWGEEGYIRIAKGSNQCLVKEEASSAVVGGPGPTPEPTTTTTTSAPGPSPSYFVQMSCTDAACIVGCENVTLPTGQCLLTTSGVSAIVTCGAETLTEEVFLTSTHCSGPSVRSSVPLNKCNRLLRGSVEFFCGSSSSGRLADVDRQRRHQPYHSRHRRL
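Detergent-free condition (0.00005% Triton X-100) in acetate buffer pH 5.5 with DTT. 1.5 nM enzyme and compound were pre-mixed 15 min, then 2 uM Z-FR-AMC substrate added; reaction progress from fluorescence change between first and third reads (60 s).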
Cruzain inh Det – blocks cruzain activity in presence of Triton detergent; 0.43% of 200,000 active; purified cruzain, Z-FR-AMC fluorescence, 0.01% Triton; Potency, µM, without a hit: max response, negative = inhibition, most hits filed as inhibitors; P25779;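 also: plate controls were neutral wells for no effect and buffer without enzyme for full effect; nearly all actives have a fitted effect of over 40% in size; top concentration of the series not given in the record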
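Cysteine protease activity tested under reducing, mildly acidic conditions (100 mM sodium acetate pH 5.5, 5 mM DTT) plus 0.01% Triton X-100. Cruzain 1.5 nM; substrate Z-FR-AMC 2 uM; 15 min compound preincubation at room temperature.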
LASV entry inh – blocks Lassa virus binding to or entry into cells; Lassa virus pseudotype entry inhibition, cell reporter; control for the full effect not named in the record; Potency, µM (doses to about 37.9 µM), for the others: at the highest dose activity change, negative = inhibition, most hits filed as inhibitors; 1.2% of 300,000 active; active means well fitted inhibition curve with a large enough effect; inconclusive means small, poorly fitted or top-dose-only effect, or effect the other way; inactive means flat fitted curve, though single readings scatter; tested in HEK293 cells; also: % is scaled to controls: 0 for no effect and ±100 for the full control effect; nearly all actives have a fitted effect of over 50% in size; luciferase read-out
MARV entry inh – inhibitors of Marburg virus binding or cell entry; Marburg virus pseudotyped entry inhibition, cell reporter; control for the full effect not named in the record; about a third of the inactives were read at about 46 µM; Potency, µM (titrated, usually from 37.8 µM), for inactives: top-dose activity change, negative = inhibition, actives largely listed as inhibitors; 1.8% of 300,000 active; AID 540276; active = well fitted inhibition curve with a large enough effect; inconclusive = small, poorly fitted or top-dose-only effect, or effect the other way; inactive = flat fitted curve, though single readings scatter; tested in HEK293 cells; about a fifth of its hits are not listed in these tables; also: % is scaled to controls: 0 for no effect and ±100 for the full control effect; luciferase read-out
2A StopGo – FMDV 2A StopGo reporter, luciferase signal; human cells with a luciferase reporter of 2A StopGo recoding; control for the full effect not named in the record; Potency, µM (doses to about 57.9 µM), for the others: top-dose signal change, negative = less light; 1.2% of 410,000 active; AID 1159524; active = well fitted falling curve with a large enough effect; inconclusive = small, poorly fitted or top-dose-only effect; inactive = no such curve, though single readings can be large or run the other way; tested in HEK293T cells; also: % is scaled to controls: 0 for no effect and ±100 for the full control effect; nearly all actives have a fitted effect of over 45% in size; luciferase light after 4 h
Starred values were filed as active, the others as inactive; & = joins results of further samples; [ ] = dose if it differs, or a comment. Unless noted, calls follow the shape of the dose curve; as a rule, active = well fitted curve in the direction sought with a large enough effect; inconclusive = small, poorly fitted or top-dose-only effect, or another doubt; inactive = no such curve, though single readings can be large; an effect the other way counts as inactive or inconclusive. Potency is read from the fitted curve at half-maximal effect.

Results for CCN(CC)C(=O)c1ccc(/C=C/c2c[nH]c3ccccc23)[n+](C)c1 ?
NS1 function inh: 8%; RE007 growth inh: -13%; SARS PLP yeast: 2%; Cruzain inh noDet: -29%; Cruzain inh Det: -14%; LASV entry inh: 8%; MARV entry inh: 19%; 2A StopGo: -21%

How did CC(C(=O)Nc1ccccc1C(F)(F)F)N1CCN(C)CC1 (configuration not stated) do in these assays?
NS1 function inh: 2%; RE007 growth inh: -4%; SARS PLP yeast: 2%; 2A StopGo: 2%

What do the screens show for `CCc1nc2ccccc2c(=O)n1NC(=O)c1c(O)c2ccccc2n(CC)c1=O`?
NS1 function inh: 5%; RE007 growth inh: -9%; SARS PLP yeast: -1%; LASV entry inh: inconclusive; MARV entry inh: inconclusive; 2A StopGo: -11%

What do the screens show for `C=CCNC(=S)N1CCN(C2CCCCC2)CC1`?
NS1 function inh: -26%; RE007 growth inh: 1%; SARS PLP yeast: -1%; LASV entry inh: 1%[46.1 µM]; MARV entry inh: 7%[46.1 µM]; 2A StopGo: 1%

What do the screens show for `CC1CCN(CC(=O)Nc2ccccc2C#N)CC1`?
NS1 function inh: -1%; RE007 growth inh: -2%; SARS PLP yeast: 3%; Cruzain inh noDet: 4%; Cruzain inh Det: -4.7%; LASV entry inh: -1%; MARV entry inh: -2%; 2A StopGo: -4%

How did CCCOc1ccc(-c2c(C(=O)N/N=C(\C)c3cccs3)nnn2-c2nonc2N)cc1 do in these assays?
NS1 function inh: 1%; RE007 growth inh: -3%; SARS PLP yeast: 0%; LASV entry inh: inconclusive; 2A StopGo: -23%

Results for CC(=C/c1ccco1)/C=N/NC(=O)CSc1nnc(SCc2ccc(C)cc2)s1 ?
NS1 function inh: 7%; RE007 growth inh: -3%; SARS PLP yeast: 2%; Cruzain inh noDet: 2%; Cruzain inh Det: -8.9%; LASV entry inh: inconclusive; MARV entry inh: inconclusive; 2A StopGo: -3%

What do the screens show for `COc1ccc(OCc2ccc(-c3nc(C#N)c(NCc4ccc(F)cc4)o3)o2)cc1`?
Cruzain inh noDet: 0%; Cruzain inh Det: -5.0%; LASV entry inh: -13%[46.1 µM]; MARV entry inh: -29%[46.1 µM]; 2A StopGo: -23%

What do the screens show for `CS(=O)(=O)c1nc(S(=O)(=O)c2ccc(Cl)cc2)c(N2CCOCC2)s1`?
NS1 function inh: 6%; RE007 growth inh: 2%; SARS PLP yeast: 2%; 2A StopGo: 7%

How did CCNC(=O)COC(=O)CCC(=O)c1cccs1 do in these assays?
NS1 function inh: 35%; RE007 growth inh: -12%; SARS PLP yeast: 0%; Cruzain inh noDet: -9%; Cruzain inh Det: -1.6%; LASV entry inh: 16%; MARV entry inh: -10%; 2A StopGo: -12%

What do the screens show for `COC(=O)c1ccc(-c2noc(CN3CCCC(CNC(C)=O)C3)n2)cc1` (configuration not stated)?
NS1 function inh: 3%; RE007 growth inh: -8%; SARS PLP yeast: -1%; LASV entry inh: -4%; MARV entry inh: -3%[46.1 µM]; 2A StopGo: 5%

How did COc1ccc(Br)c(C(=O)NNC(=O)c2ccc(NS(=O)(=O)c3cccs3)cc2)c1 do in these assays?
RE007 growth inh: 4%; SARS PLP yeast: 5%; LASV entry inh: -2%; MARV entry inh: inconclusive; 2A StopGo: -14%

Results for O=C(COC(=O)c1ccc(F)c(S(=O)(=O)N2CCOCC2)c1)c1ccc(Br)cc1 ?
RE007 growth inh: 4%; SARS PLP yeast: 8%; LASV entry inh: -10%[46.1 µM]; MARV entry inh: -23%; 2A StopGo: 0%

Results for O=C(NC1CCCCCCC1)c1ccccc1-c1ccccc1 ?
NS1 function inh: -9%; RE007 growth inh: -9%; SARS PLP yeast: -2%; Cruzain inh noDet: -8%; Cruzain inh Det: -0.3%; LASV entry inh: -27%; MARV entry inh: -25%; 2A StopGo: 0%

How did CC(NS(=O)(=O)c1ccc(OCC(=O)N2CCOCC2)c(Cl)c1)c1ccccc1 (configuration not stated) do in these assays?
NS1 function inh: -5%; RE007 growth inh: -12%; SARS PLP yeast: 5%; Cruzain inh noDet: 11%; Cruzain inh Det: 6.7%; LASV entry inh: -3%; MARV entry inh: -29%; 2A StopGo: 5%

What do the screens show for `Cc1cc(C)n(-c2nc(NCC3CCCO3)c3c4c(sc3n2)COC(C)(C)C4)n1` (configuration not stated)?
NS1 function inh: -87%; RE007 growth inh: -6%; SARS PLP yeast: 22%; Cruzain inh noDet: -1%; Cruzain inh Det: -5.8%; LASV entry inh: inconclusive; MARV entry inh: inconclusive; 2A StopGo: inconclusive

What do the screens show for `CCN1C(=NCCc2cccnc2)N[C@@H](c2ccccc2)C(C(=O)OC)=C1C`?
NS1 function inh: -4%&-8%; RE007 growth inh: -16%; SARS PLP yeast: -1%&0%; MARV entry inh: inconclusive; 2A StopGo: -9%

What do the screens show for `COC(=O)CCC(=O)Nc1cc(S(=O)(=O)Nc2ccc(Cl)cc2)ccc1N1CCOCC1`?
NS1 function inh: -2%; RE007 growth inh: 6%; SARS PLP yeast: 9%; Cruzain inh noDet: inconclusive; Cruzain inh Det: -6.3%; LASV entry inh: -2%; MARV entry inh: inconclusive; 2A StopGo: 55%[activator]

How did COc1ccc(N2CCN(C(=O)CCNC(=O)c3ccccc3)CC2)cc1 do in these assays?
NS1 function inh: 3%; RE007 growth inh: 5%; SARS PLP yeast: 0%; 2A StopGo: 1%

Results for O=C1c2ccccc2C(O)N1c1ccccc1 (configuration not stated) ?
NS1 function inh: -7%; RE007 growth inh: -19%; SARS PLP yeast: 0%; LASV entry inh: 23%; MARV entry inh: inconclusive; 2A StopGo: 21%

How did CC(=O)OC[C@H]1O[C@@H](n2ncc(=O)[nH]c2=O)[C@H](OC(C)=O)[C@@H]1OC(C)=O do in these assays?
NS1 function inh: -5%; RE007 growth inh: -2%[18.4 µM]; SARS PLP yeast: -5%; Cruzain inh noDet: 8%&3%; Cruzain inh Det: -1.2%&1.9%; LASV entry inh: 0.73µM*; MARV entry inh: inconclusive; 2A StopGo: -16%

Results for O=C(NC1CCCCC1)C1CCCN1C(=O)NCc1ccccc1 (configuration not stated) ?
NS1 function inh: -3%; RE007 growth inh: 17%; SARS PLP yeast: -1%; Cruzain inh noDet: -2%; Cruzain inh Det: 2.4%; LASV entry inh: -3%; MARV entry inh: 9%; 2A StopGo: 29%

Results for NC(=O)C1CCN(c2ccc([N+](=O)[O-])cc2Cl)CC1 ?
RE007 growth inh: 5%; SARS PLP yeast: 0%; LASV entry inh: -27%[46.1 µM]; MARV entry inh: inconclusive; 2A StopGo: -5%

What do the screens show for `CN(C)CCCN(Cc1cc2cc3c(cc2[nH]c1=O)OCCO3)C(=O)NC1CCCCC1`?
NS1 function inh: -78%; RE007 growth inh: -13%; SARS PLP yeast: 1%; 2A StopGo: -18%

Results for CCOC(=O)C1=C(CN2CCN(c3ccccc3OC)CC2)NC(=O)NC1c1ccccc1 (configuration not stated) ?
Cruzain inh noDet: 2%; Cruzain inh Det: 0.6%; LASV entry inh: -15%[46.1 µM]; MARV entry inh: inconclusive; 2A StopGo: -29%

How did COc1ccc(CC(=O)N/N=C/c2cccn2-c2ccc([N+](=O)[O-])cc2)cc1OC do in these assays?
NS1 function inh: 1%; RE007 growth inh: -1%; SARS PLP yeast: 18%; Cruzain inh noDet: 1%; Cruzain inh Det: -7.6%; LASV entry inh: -3%; MARV entry inh: inconclusive; 2A StopGo: 0%

What do the screens show for `CCOC(=O)N1CCC(N2Cc3cccc(C(=O)Nc4cccc(F)c4)c3C2=O)CC1`?
RE007 growth inh: -1%; SARS PLP yeast: 2%; LASV entry inh: 2%; MARV entry inh: 11%[46.1 µM]; 2A StopGo: -10%

How did CCN1CCN(C(=O)/C=C/c2ccc(F)cc2)CC1 do in these assays?
RE007 growth inh: -2%; LASV entry inh: 4%; MARV entry inh: 10%[46.1 µM]; 2A StopGo: 19%

What do the screens show for `NC(=O)NC(=O)COC(=O)CCSc1ccccc1`?
RE007 growth inh: 22%; SARS PLP yeast: 0%; LASV entry inh: -2%[46.1 µM]; MARV entry inh: 10%[46.1 µM]; 2A StopGo: -2%

Results for C=CC[C@](C)(O)c1ccccc1 ?
Cruzain inh noDet: -1%; Cruzain inh Det: 1.5%; LASV entry inh: inconclusive; MARV entry inh: -2%&-2%[14.2 µM]

Results for CC1=C([N+](=O)[O-])C(c2ccc3c(c2)OCO3)N(C)C(=O)N1C (configuration not stated) ?
NS1 function inh: 6%; RE007 growth inh: 7%; SARS PLP yeast: -5%; LASV entry inh: -26%[46.1 µM]; MARV entry inh: 8%[46.1 µM]; 2A StopGo: -13%

Results for c1ccc(-c2cn3ccccc3n2)cc1 ?
RE007 growth inh: -15%; LASV entry inh: -16%[46.1 µM]; MARV entry inh: 11µM*; 2A StopGo: 4%

How did Cc1ccnc(NS(=O)(=O)c2ccc(NC(=O)Cc3ccc(Cl)cc3)cc2)n1 do in these assays?
NS1 function inh: 1%; RE007 growth inh: -3%; SARS PLP yeast: 0%; 2A StopGo: -6%

Results for O=C(Cn1c(=O)n(CCC(=O)N2CCc3ccccc3C2)c(=O)c2ccccc21)NCC1CCCO1 (configuration not stated) ?
NS1 function inh: -5%; RE007 growth inh: 8%; SARS PLP yeast: -1%; Cruzain inh noDet: 3%; Cruzain inh Det: 9.5%; LASV entry inh: 0%; MARV entry inh: 6%; 2A StopGo: -14%

What do the screens show for `O=C(CN1CCN(c2ccccn2)CC1)N1CCc2ccccc21`?
NS1 function inh: 3%; RE007 growth inh: -16%; SARS PLP yeast: -7%; Cruzain inh noDet: -3%; Cruzain inh Det: -6.8%; LASV entry inh: 15%; MARV entry inh: 19%; 2A StopGo: -17%

Results for CS(=O)(=O)N1CCC(C(=O)Nc2ccccc2Sc2ccccc2)CC1 ?
NS1 function inh: -38%; RE007 growth inh: -14%; SARS PLP yeast: inconclusive; Cruzain inh noDet: 4%; Cruzain inh Det: -2.1%; LASV entry inh: inconclusive; MARV entry inh: 21%; 2A StopGo: -5%
